PPARg SRC-3 ag: PPARgamma-driven SRC-3 recruitment agonism | 200,000 compounds, 0.26% hits | activation, % at 8 µM | biochemical PPARgamma/SRC-3 coactivator recruitment assay | AID 731; in the data active = activation above about 23%;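 also: 0% = DMSO and 100% = reference agonist; some compounds past the cut are filed as inactive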
Target sequence (P37231 whole entry, looked up): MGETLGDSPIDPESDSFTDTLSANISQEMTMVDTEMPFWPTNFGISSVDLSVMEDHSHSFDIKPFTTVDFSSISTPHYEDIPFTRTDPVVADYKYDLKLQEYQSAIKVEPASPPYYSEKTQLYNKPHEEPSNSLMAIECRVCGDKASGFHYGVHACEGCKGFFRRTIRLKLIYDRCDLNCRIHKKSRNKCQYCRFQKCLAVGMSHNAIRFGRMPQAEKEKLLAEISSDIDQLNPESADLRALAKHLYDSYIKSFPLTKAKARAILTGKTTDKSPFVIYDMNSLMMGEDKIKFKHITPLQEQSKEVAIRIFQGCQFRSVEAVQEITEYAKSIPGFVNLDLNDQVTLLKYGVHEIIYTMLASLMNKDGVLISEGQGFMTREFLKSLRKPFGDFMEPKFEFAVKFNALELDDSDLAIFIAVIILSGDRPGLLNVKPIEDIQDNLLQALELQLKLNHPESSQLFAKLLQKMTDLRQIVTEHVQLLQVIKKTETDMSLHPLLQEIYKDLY
S1P3 antagonist: antagonists of human S1P3 receptor; AID 485; Q99500; inhibition, % at 4.98 µM; CHO S1P3 NFAT-BLA reporter, FRET fluorescence, antagonist mode; 170,000 compounds, 0.27% hits;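 active = inhibition above the plate cutoff, the mean inhibition of test wells on that plate plus 3 SD, cut at about 28% in these data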;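 also: cells challenged with S1P at its EC80 of 0.8 µM; blue over green emission ratio from cleaved BLA substrate after 4 h stimulation; 0% = S1P-stimulated wells and 100% = unstimulated DMSO-only wells; some compounds past the cut are filed as inactive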
Target sequence (Q99500 whole entry, looked up): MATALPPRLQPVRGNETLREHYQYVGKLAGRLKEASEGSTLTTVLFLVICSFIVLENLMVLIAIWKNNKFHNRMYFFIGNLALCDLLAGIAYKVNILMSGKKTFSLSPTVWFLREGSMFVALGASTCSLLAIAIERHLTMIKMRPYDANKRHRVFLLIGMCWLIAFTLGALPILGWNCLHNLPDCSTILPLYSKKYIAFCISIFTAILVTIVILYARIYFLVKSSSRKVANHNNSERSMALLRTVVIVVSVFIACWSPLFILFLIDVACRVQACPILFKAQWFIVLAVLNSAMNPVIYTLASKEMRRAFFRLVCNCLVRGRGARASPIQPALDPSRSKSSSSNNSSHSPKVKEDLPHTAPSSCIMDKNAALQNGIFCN
Diaph inh CS: counter-screen for diaphorase-based assays: diaphorase inhibitors and chemical oxidizers; 190,000 compounds, 0.69% hits; inhibition, % at 20 µM; diaphorase resazurin-to-resorufin fluorescence, NADH, 16 min; bacterial (C. kluyveri) enzyme, not human;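 active = primary screen inhibition at 20 µM above a set limit, cut at about 50% in these data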;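 also: plate controls were DMSO with full reaction for no effect and wells lacking NADH for full effect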
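Detection: fluorescence of resorufin formed from resazurin, Ex 544/Em 590 nm; test system: Clostridium kluyveri diaphorase enzyme; amount: 0.14 U/mL diaphorase, enzyme working solution; times: 16-min room-temperature incubation before reading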
PPARg SRC-2 ag: PPARgamma-driven SRC-2 recruitment agonism | P37231 | PPARgamma LBD-SRC-2 recruitment, biochemical | activation, % at 8 µM | 200,000 compounds, 0.34% hits | AID 1032; in the data active = activation above about 22%;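 also: 0% = vehicle and 100% = reference agonist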
PPARg SRC-1 ag: promotes SRC-1 coactivator recruitment by human PPARgamma; P37231; activation, % at 8 µM; 200,000 compounds, 0.41% hits; PPARgamma-SRC-1 coactivator recruitment biochemical assay; in the data active = activation above about 19%;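 also: 0% = DMSO and 100% = reference agonist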
G6PDH counter: counter-screen for G6PDH assay hits: L. mesenteroides G6PDH inhibition; AID 1020; Purified L. mesenteroides G6PDH, diaphorase/resazurin coupled fluorescence, 45 min; 200,000 compounds, 0.12% hits; inhibition, % at 5 µM; in the data active = inhibition above about 50%
ROMK primary: human ROMK K+ channel modulation, primary screen; 130,000 compounds, 2% hits; B-score at 10 µM; AID 1918; Tet-inducible ROMK, thallium flux fluorescence; actives lie on both sides; P48048;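 active = signal ratio slope over the read window, or its plate-corrected B-score, at least 3 SD from the plate mean, either direction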;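 also: B-score of the F/F0 ratio slope over 7 to 12 s after thallium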
SRC2 TRFRET art: flags TR-FRET format artefacts in PPARgamma SRC-2 recruitment agonist screen; 200,000 compounds, 0.4% hits; TR-FRET ratio at 8 µM; AID 1049; TR-FRET artefact counter-screen; active compounds read high; in the data active = TR-FRET ratio above about 2000; also: inactives centre near 1500; reference of the scale not given here
Starred values were filed as active, the others as inactive; nt = not tested or not shown. Only part of the results is shown; rates above refer to the full screens.

1) CCOc1ccc(N2C(=O)CC(Sc3nc(-c4cccs4)cc(C(F)(F)F)c3C#N)C2=O)cc1 (stereo unspecified)
2) CC(C)Oc1ccc(/C(O)=C2/C(=O)C(=O)N(Cc3cccnc3)C2c2ccco2)cc1 (stereo unspecified)
3) Cn1c(Nn2cnnc2)nc2ccccc21
4) CCCCN1C(=O)CC(Sc2ccccc2C(=O)O)C1=O (stereo unspecified)
5) CCN(CC)S(=O)(=O)c1ccc(Cl)c(NC(=O)c2ccccc2C)c1
6) COC(=O)c1cn(NC(=O)C2CCC(C(C)(C)C)CC2)c(=O)c2ccccc12 (stereo unspecified)
7) Cc1ccc(-c2csc(Cc3nc(-c4cc5ccccc5oc4=O)cs3)n2)cc1
8) CCOC(=O)c1c(C)[nH]c(C(=O)CSc2nnc(-c3cccs3)n2Cc2ccccc2)c1C
compound no.,1,2,3,4,5,6,7,8
PPARg SRC-3 ag,-5,12,-6,22,-10,10,9,-9
S1P3 antagonist,nt,nt,-32,nt,nt,nt,nt,nt
Diaph inh CS,26,7,4,14,6,4,14,20
PPARg SRC-2 ag,4,8,3,0,-7,10,2,3
PPARg SRC-1 ag,1,12,5,8,2,5,4,-6
G6PDH counter,0,5,8,3,3,-1,5,5
ROMK primary,nt,nt,0.016,nt,nt,nt,0.37,nt
SRC2 TRFRET art,1583,1677,1743,1465,1450,1670,1712,1546

9) CCn1c(Cc2ccccc2)nnc1SCC(=O)c1cccc([N+](=O)[O-])c1
10) O=C(Nc1nc(-c2ccccc2)c(-c2ccccc2)o1)c1ccc(F)cc1
11) Cc1nnnn1-c1cccc(C(=O)O)c1
12) COCCN1CN=C(Nc2nc3ccccc3o2)NC1
13) COc1cc2c(cc1NC(=O)Nc1ccccc1)oc1ccccc12
14) CSc1nnc(-c2ccc(Cl)cc2Cl)o1
15) CCOC(=O)N1CCC(n2c(SCC(=O)c3ccccc3)nc3ccsc3c2=O)CC1
16) Cc1cccc(NC(=S)NCc2ccccn2)c1
compound no.,9,10,11,12,13,14,15,16
PPARg SRC-3 ag,4,1,-4,7,2,6,9,4
S1P3 antagonist,nt,nt,nt,nt,nt,nt,nt,nt
Diaph inh CS,19,16,14,12,15,5,9,5
PPARg SRC-2 ag,5,6,6,4,4,6,1,7
PPARg SRC-1 ag,8,-2,7,9,5,3,4,6
G6PDH counter,10,3,-8,4,-1,2,2,8
ROMK primary,-0.34,nt,0.15,nt,nt,nt,0.054,nt
SRC2 TRFRET art,1652,1471,1610,1600,1496,1596,1490,1679

17) CCC(C)[C@H](NC(=O)NCc1ccccn1)C(=O)OC (stereo partly specified)
18) Cc1cc(OCC(F)(F)C(F)(F)C(F)(F)C(F)F)nc(N)n1
19) COc1ccc(NC(=O)COC(=O)CCCc2c[nH]c3ccccc23)cc1OC
20) COc1cc2ccccc2cc1C(=O)Nc1ccc(Cc2ccncc2)cc1
21) CN(C)c1cc[n+](CC(=O)Nc2cc(C(F)(F)F)ccc2Cl)cc1
22) COc1ccc(-n2nc(C(=O)NCC(=O)Nc3ccccn3)c3ccccc3c2=O)cc1Cl
23) CC(=O)Nc1ccc(-c2cn3cccnc3n2)cc1
24) Cc1nc2ncnn2c(C)c1CCC(=O)NC(C)c1ccc2c(c1)OCCO2 (stereo unspecified)
compound no.,17,18,19,20,21,22,23,24
PPARg SRC-3 ag,10,-1,11,8,5,1,-8,4
S1P3 antagonist,nt,nt,nt,nt,nt,nt,nt,-1
Diaph inh CS,-6,13,6,-6,9,-6,1,6
PPARg SRC-2 ag,-13,0,7,9,8,4,-1,5
PPARg SRC-1 ag,4,-3,7,-4,4,23*,13,-4
G6PDH counter,1,4,0,-1,7,3,4,4
ROMK primary,nt,nt,nt,nt,nt,nt,nt,nt
SRC2 TRFRET art,1320,1685,1521,1645,1682,1766,1638,1440

25) COCCN1C(=O)C(O)=C(C(=O)c2cccs2)C1c1ccccc1 (stereo unspecified)
26) CCOc1ccc(N(CCC#N)S(=O)(=O)c2ccc(OC)cc2)cc1
27) Nc1nnnn1/N=C\c1ccc(Cl)c([N+](=O)[O-])c1
28) NNC(=O)c1cn2ccccc2n1
29) CC(C)NC(=O)c1noc2cc([N+](=O)[O-])ccc12
30) Cc1ccccc1OCCCC(=O)NCc1ccco1
31) CCCn1nnc(NC(=O)c2cccc(Cl)c2)n1
32) COC(=O)c1[nH]c2cc(C)ccc2c1NC(=O)CN1CCCc2ccccc21
compound no.,25,26,27,28,29,30,31,32
PPARg SRC-3 ag,14,-1,-1,-11,6,-7,2,3
S1P3 antagonist,nt,7,nt,nt,nt,nt,nt,27
Diaph inh CS,8,10,6,6,7,6,11,17
PPARg SRC-2 ag,3,6,4,6,0,6,-2,-3
PPARg SRC-1 ag,19*,1,4,1,2,1,-11,-6
G6PDH counter,8,2,10,4,5,2,2,0
ROMK primary,nt,nt,nt,nt,nt,nt,nt,-0.7
SRC2 TRFRET art,1641,1597,1567,1597,1604,1579,1490,1289

33) CCCC(O)(CCC)C(=O)NNc1ccccc1
34) COC(=O)C1=C(C(=O)c2ccc(C)cc2)C(c2ccccc2)n2nnnc2N1 (stereo unspecified)
35) COC(=O)C1=C(C(=O)OC)C(c2cc(Cl)ccc2O)c2sc(=O)[nH]c2S1 (stereo unspecified)
36) Cc1cc(C(=O)CSc2nnc(-c3ccc(Cl)cc3)n2C)c(C)n1CC1CCCO1 (stereo unspecified)
37) O=C(/C=C/c1ccccc1)N/C(=C\c1ccco1)C(=O)NCCO
38) CC(=O)C(N=Nc1ccccc1)(Sc1nnc(-c2ccccc2)n1-c1ccccc1)C(C)=O
39) Cc1ccc(CCNC(=O)CCNS(=O)(=O)c2ccc3c(c2)c(=O)n(C)c(=O)n3C)cc1
40) CCCCn1c(Cl)nc2c1c(=O)n(C)c(=O)n2C
compound no.,33,34,35,36,37,38,39,40
PPARg SRC-3 ag,4,3,4,7,13,0,0,-7
S1P3 antagonist,nt,nt,nt,nt,nt,nt,-18,-1
Diaph inh CS,-4,22,22,18,0,19,16,-1
PPARg SRC-2 ag,13,-5,3,10,9,4,-14,1
PPARg SRC-1 ag,-1,0,2,6,-2,-4,-2,0
G6PDH counter,9,3,16,3,2,9,4,3
ROMK primary,nt,nt,nt,nt,nt,nt,nt,nt
SRC2 TRFRET art,1527,1448,1400,1630,1519,1586,1498,1552

41) O=C(CN1C(=O)C2C3C=CC(C3)C2C1=O)NC1CCCc2ccccc21 (stereo unspecified)
42) Cc1ccc(C(=O)OCn2ncc(Cl)c(Cl)c2=O)cc1
43) O=C(NC1CCS(=O)(=O)C1)c1c(NC(=O)C2COc3ccccc3O2)sc2c1CCCC2 (stereo unspecified)
44) COc1cc(/C=C(/NC(=O)c2ccccc2)C(=O)Nc2ccccc2)c([N+](=O)[O-])cc1OC
45) CCC(=O)Nc1ccc(S(=O)(=O)N2CCN(c3ccc(F)cc3)CC2)cc1
46) Cc1c(Br)c([N+](=O)[O-])nn1C(C)C(=O)Nc1ccc2c(c1)OCO2 (stereo unspecified)
47) CCc1ccc(Cn2nnc(C(=O)NCc3ccccc3OC)c2N)cc1
48) COC(=O)c1c(C)n(-c2ccccc2)c2ccc(O)cc12
compound no.,41,42,43,44,45,46,47,48
PPARg SRC-3 ag,-2,8,6,6,15,-3,-1,-10
S1P3 antagonist,-12,nt,nt,nt,nt,nt,1,38
Diaph inh CS,18,-6,2,23,15,23,0,23
PPARg SRC-2 ag,-10,13,-1,5,-1,-2,2,3
PPARg SRC-1 ag,6,9,5,2,6,2,2,6
G6PDH counter,4,10,2,0,5,5,8,5
ROMK primary,nt,nt,0.14,0.96,nt,nt,nt,-0.36
SRC2 TRFRET art,1507,1671,1442,1549,1655,1584,1536,1543

49) Cc1ccccc1NC(=O)Cn1cnc2c1c(=O)n(C)c(=O)n2C
50) N#CC1=C(N)OC2=C(C(=O)CC(c3ccco3)C2)C1c1ccc(OCc2c(F)cccc2Cl)cc1 (stereo unspecified)
51) C1CCN(c2nc3nonc3nc2N2CCCC2)C1
52) Cc1ccc(-c2cccc(OC(=O)c3ccccc3F)c2)cc1
53) Cc1cccc(C(=O)NNC(=O)c2cc3cc4ccccc4nc3s2)c1
54) O=C(c1ccc(Cl)cc1)c1cnc(-c2ccccc2)s1
55) Cc1ccc(OCC(=O)Nc2ccccc2N2CCOCC2)c(C)c1
56) Cc1c(Cl)cccc1N1C(=O)C(N2C(=O)c3cccc([N+](=O)[O-])c3C2=O)C1c1cccs1 (stereo unspecified)
compound no.,49,50,51,52,53,54,55,56
PPARg SRC-3 ag,-16,0,-7,-8,-4,5,6,2
S1P3 antagonist,nt,nt,13,nt,nt,nt,nt,nt
Diaph inh CS,22,9,6,10,3,8,22,1
PPARg SRC-2 ag,0,-4,2,-7,-3,3,-8,3
PPARg SRC-1 ag,-5,12,-1,-2,5,-3,2,3
G6PDH counter,-4,0,-2,-6,1,-2,14,3
ROMK primary,nt,nt,1.2,nt,nt,nt,nt,nt
SRC2 TRFRET art,1477,1388,1496,1413,1389,1478,1385,1577

Fetched by compound from the entries so far, four records:
25) COCCN1C(=O)C(O)=C(C(=O)c2cccs2)C1c1ccccc1 (stereo unspecified)
22) COc1ccc(-n2nc(C(=O)NCC(=O)Nc3ccccn3)c3ccccc3c2=O)cc1Cl
37) O=C(/C=C/c1ccccc1)N/C(=C\c1ccco1)C(=O)NCCO
31) CCCn1nnc(NC(=O)c2cccc(Cl)c2)n1
compound no.,25,22,37,31
PPARg SRC-3 ag,14,1,13,2
S1P3 antagonist,nt,nt,nt,nt
Diaph inh CS,8,-6,0,11
PPARg SRC-2 ag,3,4,9,-2
PPARg SRC-1 ag,19*,23*,-2,-11
G6PDH counter,8,3,2,2
ROMK primary,nt,nt,nt,nt
SRC2 TRFRET art,1641,1766,1519,1490

(cont.)
57) Cc1ccc(NC(=O)COc2ccc(S(=O)(=O)N3CCOCC3)cc2)cc1
58) O=C(CSc1nc2c(c(=O)n1-c1ccc(F)cc1)SCC2)N1CCCC1
59) Clc1ccc(OCc2cnc(Cl)s2)cc1
60) O=S(=O)(Nc1ccc(S(=O)(=O)N2CCCCC2)cc1)c1cccs1
61) CN(C)S(=O)(=O)c1ccc(NC(=O)N2CCN(c3ccccc3)CC2)cc1
62) CCOC(=O)c1[nH]c2ccccc2c1NC(=O)c1nonc1C
compound no.,57,58,59,60,61,62
PPARg SRC-3 ag,-10,-1,-3,7,-7,-6
S1P3 antagonist,nt,14,nt,0,nt,nt
Diaph inh CS,13,10,22,-5,4,13
PPARg SRC-2 ag,0,5,-5,19,-9,18
PPARg SRC-1 ag,-10,-1,-2,1,-6,3
G6PDH counter,4,4,-5,10,1,3
ROMK primary,nt,0.063,0.14,nt,-0.015,0.22
SRC2 TRFRET art,1498,1538,1444,1592,1410,1585

Screening results from PubChem.
